# Screening results deposited in PubChem by National Center for Advancing Translational Sciences (NCATS).
# AmpC inh no det – Promiscuous and Specific Inhibitors of AmpC Beta-Lactamase (assay without detergent). AmpC nitrocefin hydrolysis, absorbance 480 nm, no detergent; potencies from a single point are estimates. Potency, µM (highest dose often 28.7 µM), inactives show at the highest dose activity change, negative = inhibition. 71,000 compounds, 1.8% hits; active = falling curve, for most hits resting on a single point; inconclusive = weak or doubtful change; inactive = flat or rising curve; further: % of control where 0% means no effect; about half of the hits show no inhibition at the top dose; a quarter of the inactives give rising signals
# Target sequence (P00811 whole entry, looked up): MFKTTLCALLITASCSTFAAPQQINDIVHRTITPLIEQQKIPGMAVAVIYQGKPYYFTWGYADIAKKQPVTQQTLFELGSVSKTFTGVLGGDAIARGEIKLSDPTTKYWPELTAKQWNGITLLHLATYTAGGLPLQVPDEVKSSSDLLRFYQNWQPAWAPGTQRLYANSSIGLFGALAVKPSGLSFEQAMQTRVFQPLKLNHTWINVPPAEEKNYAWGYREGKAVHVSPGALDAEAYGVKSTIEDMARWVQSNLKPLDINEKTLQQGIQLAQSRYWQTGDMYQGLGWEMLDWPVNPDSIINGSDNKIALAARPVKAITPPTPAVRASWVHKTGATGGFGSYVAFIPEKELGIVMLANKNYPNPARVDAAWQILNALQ
#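 Enzyme, pH 7.0 phosphate. Compound titrations were pre-incubated with AmpC for 15 min at room temperature before nitrocefin (stock 800 uM) addition; product formation was recorded at 480 nm every 20 s for 4 min.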
# * marks the source's active call; other numbers are inactive results; ? = inconclusive; & = joins results of further samples; [ ] = another dose, or the depositor's remark. Potency means the concentration at half of the fitted maximal effect. The list is partial. The share of hits here may be higher or lower than overall.
SMILES,AmpC inh no det
COc1cc(Cl)cc(C2NC(=O)NC(C)=C2C(=O)NCc2ccccc2)c1O (centres undefined),11%
O=c1[nH]c2ccccc2nc1C(F)(F)C(F)F,-10%
NC(=O)C1CCN(C2CC(=O)N(c3cccc(F)c3)C2=O)CC1 (centres undefined),-10%
COc1ccc(Br)cc1CNC(=O)C1CCN(S(=O)(=O)N2CCCC2)CC1,50%
Cc1ccccc1-c1nnc(SCC(=O)NC2CCCCC2)o1,6%
COc1cccc(C(=O)N2CCN(Cc3ccco3)CC2)c1OC,4%
CC(=O)C(Sc1nc(NC(C)(C)C)nc(N(C)C)n1)C(C)=O,21%
COc1cccc(NC(=O)N2CCOCC2)c1,4%
C/C(N)=C(/C#N)C(=O)COC(=O)COc1ccc(Cl)cc1,-9%
CCC(C)C(NC(=O)C1CCC(C)CC1)C(=O)NCc1cccnc1 (centres undefined),2%
N#Cc1ccccc1OCC(=O)OCC(=O)c1ccc2c(c1)NC(=O)CO2,-9%
Cc1ccc(-c2c(C)n([O-])c3c([n+]2=O)CCC3)o1,-16%
CC(c1ccco1)N(C(=O)CSc1ccc(Br)cc1)c1ccccn1 (centres undefined),39%
CCCn1c(=S)[nH]c2cc(C(=O)NCC3CCCO3)ccc2c1=O (centres undefined),-3%
CSc1ccc(C(=O)C(C)(C)N2CCOCC2)cc1,17%
O=C(O)c1ccc(NS(=O)(=O)c2cc(Cl)ccc2Cl)cc1O,-21%
OCc1csc(=Nc2ccccc2)n1-c1ccccc1,4%
COc1ccc(C(c2nnnn2C2CCCC2)N2CCC(C(N)=O)CC2)c(OC)c1 (centres undefined),98%
CCCn1c(SCC(=O)N2CCc3ccccc3C2)nc2c1c(=O)n(C)c(=O)n2C,42%
O=C(C1c2ccccc2C(=O)N2CCc3ccccc3C12)N1CCC2(CC1)OCCO2 (centres undefined),21%
Cn1nnnc1SCC(=O)N1CCN(c2ccccc2)CC1,-1%
CC(C)C(=O)Nc1cccc(C(=O)Nc2nccs2)c1,-3%
NC(N)=N/N=C\c1ccc(C2CCNCC2)cc1,-14%[5.75 µM]
O=C(O)c1ccc2c(c1)C(=O)N(c1cc(C(=O)O)ccc1Br)C2=O,-19%
CN1CCN(Cc2cc(=O)oc3ccc(Cl)cc23)CC1,2%
CP(=O)(O)C1=CCNCC1,-1%
COc1cc(C)nc(OCCNC(=O)COc2ccc(Cl)cc2Cl)n1,85%
O=C(Oc1ccccc1OC(=O)N1CCOCC1)N1CCOCC1,-10%
Cc1cn([C@H]2C=C[C@@H](CO)O2)c(=O)[nH]c1=O,2%&-8%
O=C(Nc1ccc2c(c1)OCCO2)c1ccc(NC(=O)C2CCCO2)cc1 (centres undefined),-8%
C=CCN(c1ccc(C(=O)N2CCCC2)cc1)S(C)(=O)=O,22%
COc1ccc(C)cc1S(=O)(=O)N(CC(=O)O)c1ccc(C)cc1,-2%
CN(C)c1ncc2nc(-c3ccccc3)c(=O)n(CCC#N)c2n1,11%
NCCCCCCNS(=O)(=O)c1cccc2c(Cl)cccc12,63%&29%
CCOc1ccc(C(=O)COC(=O)CC)cc1,6%
COC(=O)C(Cc1ccc(O)cc1)NC(=O)C(C)Oc1ccccc1 (centres undefined),9%
O=C(NCc1ccco1)c1c2c(nc3ccccc13)CCC2,1%
O=C(CC1Oc2ccccc2NC1=O)NCCCN1CCN(Cc2ccccc2)CC1 (centres undefined),26%
O=C(C1CCCN(S(=O)(=O)c2cnc[nH]2)C1)N1CC(=O)N(CCc2ccccc2)C(=O)C1 (centres undefined),26%
Cc1n[nH]c(C)c1S(=O)(=O)N1CCN(C(=O)c2ccco2)CC1,-4%
Cn1nnc2cc(C(=O)NC3CCCCC3)ccc21,8%
CCCCNC(=O)CSc1cc(=O)n(C)c2ccccc12,0%
O=C(O)[C@H](CCc1ccccc1)N1C(=O)c2ccccc2C1=O,6%[5.75 µM]
Cc1cc(NC(=O)c2cc3n(n2)C(C(F)(F)F)CC(c2ccco2)N3)no1 (centres undefined),6%
CCC1(C)Cc2c(c(=O)n(-c3ccccc3)c3ncnc(N)c23)CO1 (centres undefined),1%
COc1ccc2c(c1)CCc1c(C(=O)N3CCCCCC3)noc1-2,53%
CC(=O)N1CCC(Nc2ccc(C)cc2)CC1,2%
COc1cc(/C=C\C(=O)N2CCCCC2=O)cc(OC)c1OC,34%
CCOC(=O)C1CCN(C(=O)c2cn(-c3ccccc3)nc2-c2cccnc2)CC1,78%
O=C(CCc1nc(-c2cccs2)no1)Nc1cnc2ccccc2c1,?

# Next structures:
SMILES,AmpC inh no det
C[N+](C)(C)CCC(=O)c1cccc2ccccc12,0%
CCOC(=O)c1c(C2CC2)csc1NC(=O)CSCc1c(C)noc1C,57%
Oc1ccc(C(c2nnnn2C2CCCC2)N2CCc3ccccc3C2)cc1 (centres undefined),-11%
Cn1c(=O)[nH]c(=O)c2c1nc(NCCc1ccccc1)n2CC(O)COc1ccccc1 (centres undefined),4%
O=C(NCCCCNC(=O)c1ccco1)c1ccco1,-5%
CCn1cc(C(=O)NCc2cccnc2)c2cc(OC)c(OC)cc2c1=O,-5%
O=C(CCS(=O)(=O)c1cccc2nonc12)N1CCCc2ccccc21,13%
CCc1ccc(-c2nc(CSCC(=O)N3CCN(c4ncccn4)CC3)c(C)o2)cc1,72%
Cc1csc(NC(=O)CCn2c(=O)sc3ccccc32)n1,6%
CCN(CC)CCNC(=O)Cn1nc(Cc2ccccc2)c2ccccc2c1=O,11%
CN(Cc1ccccc1)C(=O)CCNS(=O)(=O)c1ccc2c(c1)oc(=O)n2C,5%
CCCOc1ccc(/C(O)=C2/C(=O)C(=O)N(CCCOC)C2c2cccnc2)cc1 (centres undefined),-4%
CC(=O)c1cc(-c2ccccc2)[nH]c1N1CCOCC1,-2%
CCN(CC)c1ncnc2c1cnn2C,0%
CC(C(=O)NCCCN1CCOCC1)n1cccc1C(=O)c1ccccc1 (centres undefined),3%
O=C(O)CC(Cc1ccccc1)c1ccc2c(c1)OCO2 (centres undefined),-3%
NC(=O)c1c(NC(=O)C2CCCO2)sc2c1CCC2 (centres undefined),9%
Cc1ccc(SCc2cn3c(C)csc3n2)cc1,4%
NC(=O)c1ccc(-c2ncc(-c3ccccc3)o2)cc1,6%
Cc1cnc(C(=O)Nc2ccccc2C(=O)N2CCOCC2)cn1,-9%
O=C(NCC1CCCO1)c1ccc(NC(=O)C2CC=CCC2C(=O)O)cc1 (centres undefined),6%
O=C(NCc1ccccc1)c1ccc2c(c1)OCCO2,-11%
CCOC(=O)[C@@]12C[C@@H]1/C(=N/O)c1ccccc1O2,25%&-3%
COCCCNC(=O)c1ccc(NS(C)(=O)=O)cc1,-3%
Cc1c(C(=O)N2CCN(c3ccc(C(F)(F)F)cn3)CC2)oc2ccccc12,58%
COc1ccc(OC)c(N2Cc3cc(C)c(C)cc3C2)c1,42%
Cc1occc1C(=O)N1CCN(C(c2ccccc2)c2ccccc2)CC1,76%
O=S(=O)(c1ccccc1)N1CCC2(CC1)CN(Cc1nccs1)C2,130%
Cc1ccc(S(=O)(=O)NCCN2CCOCC2)cc1C,18%
Cc1ccc(C2SCC(=O)N2Cc2cn3ccsc3n2)o1 (centres undefined),1%

# The list goes on (three carried over from the part before).
SMILES,AmpC inh no det
O=S(=O)(c1ccccc1)N1CCC2(CC1)CN(Cc1nccs1)C2,130%
Cc1ccc(S(=O)(=O)NCCN2CCOCC2)cc1C,18%
Cc1ccc(C2SCC(=O)N2Cc2cn3ccsc3n2)o1 (centres undefined),1%
COC(=O)C1=C(C)C(c2cccs2)NC(=O)N1C (centres undefined),-2%
CN(C)c1nc(Oc2ccc(=O)[nH]n2)nc(N2CCCCC2)n1,19%
COc1ccc(-c2nn(C)c(=O)c3ccccc23)cc1CNC(=O)c1ccco1,49%
CC1CC(NC(=O)CCn2c(=O)oc3ccccc32)CC(C)(C)C1 (centres undefined),83%
COC(=O)NC1(C(F)(F)F)C(=O)NC(C)=C1C(=O)OC (centres undefined),-3%
Nc1nc(-c2ccco2)cs1,-18%
CCC(=O)Oc1ccc(C/C(=N\O)c2ccc(O)cc2O)o1,?
Cc1noc(C)c1C(=O)N1CCC2(CCCN(Cc3ccccc3)C2)CC1,2%
O=C1c2ccccc2C(Nc2ccc3c(c2)OCCO3)N1Cc1ccco1 (centres undefined),22%
CC(Sc1nnnn1C)C(=O)Nc1ccc(N2CCOCC2)cc1 (centres undefined),0%
C=CCn1c(SCc2nc(N)nc(N3CCCCC3)n2)nnc1-c1ccco1,34%
COc1cc(S(=O)(=O)N2CCN(c3ccccc3F)CC2)c(OC)cc1Cl,17%
Cc1cc(N2CCC(C(=O)N3CCN(c4cccc(C)c4C)CC3)CC2)n2ncnc2n1,156%
Cc1cc(NC(=O)Cn2c(=O)c3c(ncn3CC(C)C)n(Cc3ccccc3)c2=O)no1,24%
Cc1ccn2cc(CNS(=O)(=O)c3ccc4c(c3)OCCO4)nc2c1,-1%
Cc1ccc(OCC(=O)NCc2ccccn2)c(Br)c1,46%
Cc1ccccc1-c1nc(CS(=O)CC(=O)NCCN2CCN(Cc3ccccc3)CC2)c(C)o1 (centres undefined),130%
CCN(CC)CCCNC(=O)C1CCC(=O)N(c2ccc(OC)cc2)C1c1ccc(F)cc1 (centres undefined),11%
O=C(O)CC1(c2ccccc2)C(=O)c2ccccc2C1=O,-7%
FC(F)(F)c1cc(CN2CC[C@@]3(CCCNC3)C2)cc(C(F)(F)F)c1,20%

# 5 structures from above, sorted by heavy-atom count, falling:
SMILES,AmpC inh no det
Cc1ccccc1-c1nc(CS(=O)CC(=O)NCCN2CCN(Cc3ccccc3)CC2)c(C)o1 (centres undefined),130%
Cc1cc(NC(=O)Cn2c(=O)c3c(ncn3CC(C)C)n(Cc3ccccc3)c2=O)no1,24%
C=CCn1c(SCc2nc(N)nc(N3CCCCC3)n2)nnc1-c1ccco1,34%
COc1cc(S(=O)(=O)N2CCN(c3ccccc3F)CC2)c(OC)cc1Cl,17%
FC(F)(F)c1cc(CN2CC[C@@]3(CCCNC3)C2)cc(C(F)(F)F)c1,20%

# (list continues)
SMILES,AmpC inh no det
CC(=O)c1c(C)[nH]c(C(=O)NC2CCCCC2)c1C,-18%
Cc1ccccc1NC(=O)NCCN1C(=O)C2C3C=CC(C3)C2C1=O (centres undefined),2µM*[single pt active]
CCOC(=O)C1=C(C)OC(N)=C(C(=O)OCC)C1c1cccnc1 (centres undefined),24%
Cc1cccc2nc(CSCc3ccco3)cn12,-2%
CCCCn1c(C)c(C(=O)OCC)c2c(CN3CCOCC3)c(O)ccc21,86%
O=c1[nH]c(=O)n(Cc2ccco2)c(O)c1C=NCc1cccs1,-6%
CC(=O)Nc1nc(C=C(Cl)Cl)cs1,-18%
COc1ccc(-c2csc(N(CC3CCCO3)C(=O)c3ccco3)n2)cc1 (centres undefined),?
COc1ccc(NC(=O)C2CCN(S(=O)(=O)c3cccc4cccnc34)CC2)cc1OC,42%
CCN(CC)CCCC(C)n1c(-c2ccccc2)nc2c(N3CCOCC3)nc(C)nc21 (centres undefined),51%
Cc1ccc(OC(=O)CCC(=O)Nc2ccc(S(=O)(=O)Nc3cc(C)on3)cc2)cc1,18%
O=C(CN1C(=O)CCC1=O)Nc1ccc2c3c(cccc13)CC2,4%
O=C(O)[C@@H]1Cc2c([nH]c3ccccc23)[C@@H](CCCCO)N1,2%[5.75 µM]
COC(=O)N1CCC[C@@]2(CCN(c3ncccn3)C2)C1,-2%
O=C1CSC(=S)N1Cc1cccnc1,8%
CCCCn1c(NC(=O)c2ccccc2)nc2ccccc21,14%
C1=CC2c3ccccc3NC(c3ccncc3)C2C1 (centres undefined),108%
CCOc1ccc(NC(=O)CN2CCC(NC(=O)C3CCCCC3)CC2)cc1,14%
COc1cccc(-c2nc(NC3CC3)c3ccccc3n2)c1,2%
COc1ccc(OC)c(NC(=O)CNC(=O)Cn2cnc3ccccc3c2=O)c1,12%

# Filtered by structure, the compounds so far with a cyano group.
SMILES,AmpC inh no det
C/C(N)=C(/C#N)C(=O)COC(=O)COc1ccc(Cl)cc1,-9%
N#Cc1ccccc1OCC(=O)OCC(=O)c1ccc2c(c1)NC(=O)CO2,-9%
CN(C)c1ncc2nc(-c3ccccc3)c(=O)n(CCC#N)c2n1,11%

# Next part:
SMILES,AmpC inh no det
CCCC(=O)Nc1nc2ccc3nc(C)sc3c2s1,60%
C=CCNC(=O)CCCC(=O)NCC=C,-2%
COCCn1c(-c2ccc(Cl)cc2)cnc1SCC(=O)NCc1cccs1,117%
COc1ccc(-c2nc(C#N)c(NCCCN3CCOCC3)o2)cc1,59%
CC(C)=C1C2CCC1C(C(=O)NCc1ccccc1)C2C(=O)O (centres undefined),28%
CCOc1ccc(Nc2nc(Cc3nnc(SCC(=O)NCC4CCCO4)n3C)cs2)cc1 (centres undefined),98%
COc1cccc(-c2nn(C)c3sc(C(=O)N4CCN(c5ccccn5)CC4)cc23)c1,97%
c1ccc(-c2nc(-n3ccnc3)nc(-n3ccnc3)n2)cc1,61%
COc1ccc(OC)c2sc(N3CCCCC3)nc12,90%
O=C(O)c1cscn1,4%
